Vero: Vero cell cytotoxicity, dose response, cytotoxicity control for Vif-APOBEC3G degradation inhibitor project, Vero cells (AID 1117358). Vero viability, CellTiter-Glo ATP luminescence, 72 h; reference of the scale not given here. viability, % at the top dose, mostly 40 µM; hits show CC50 in µM. hit rate 7% among 2,300;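 active = viability down to 80% or less at some dose; inactive = above 80% at all doses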
Numbers without * were called inactive.

The first five records, ahead of the listing:
no. | Structure | Vero
1 | Cc1cccc(NC(=O)CSc2nnc(-c3ccccc3C)o2)c1 | 103.8%
2 | CC(C)n1c(=NC(=O)c2ccco2)c(C#N)cc2c(=O)n3ccccc3cc21 | 90.4%
3 | CC1(C)CC(=O)C2=C(C1)NCN(Cc1ccc3c(c1)OCO3)C2 | 96.3%
4 | CCC(C)C(NC(=O)[C@@H](NC(=O)c1ccccc1F)C(C)C)C(=O)OC (stereo partly specified) | 104.5%
5 | COc1ccc(CC(=O)OCc2cc3ccc(C)cc3[nH]c2=O)cc1 | 92.6%

The listing, from the first entry:
no. | Structure | Vero
1 | Cc1cccc(NC(=O)CSc2nnc(-c3ccccc3C)o2)c1 | 103.8%
2 | CC(C)n1c(=NC(=O)c2ccco2)c(C#N)cc2c(=O)n3ccccc3cc21 | 90.4%
3 | CC1(C)CC(=O)C2=C(C1)NCN(Cc1ccc3c(c1)OCO3)C2 | 96.3%
4 | CCC(C)C(NC(=O)[C@@H](NC(=O)c1ccccc1F)C(C)C)C(=O)OC (stereo partly specified) | 104.5%
5 | COc1ccc(CC(=O)OCc2cc3ccc(C)cc3[nH]c2=O)cc1 | 92.6%
6 | CC(=O)c1ccc(NC(=O)C(C)OC(=O)C(C)Oc2cccc(C)c2)cc1 (stereo unspecified) | 96.8%
7 | COCCCNc1nc2c(c(=O)n(C)c(=O)n2C)n1Cc1cccc(OC)c1 | 89.0%
8 | CC(=O)Nc1c2c3c(cccc3n(C)c1=O)C(=O)c1ccccc1-2 | 90.1%
9 | COc1ccc(CNC(=O)c2ccc(NC(=O)C3CCCO3)cc2)cc1 (stereo unspecified) | 92.8%
10 | CC(N=Cc1cccc(O)c1O)c1ccccc1 (stereo unspecified) | 99.3%
11 | Cc1cc(C(F)F)n2ncc(C(=O)NCc3ccccc3C(F)(F)F)c2n1 | 88.7%
12 | CCN(CC)c1ccc2c(c1)CCCN2 | >40µM*
13 | Cc1ccc(C)n1/N=C1/NC(=O)CS1 | 84.7%
14 | CCc1cccc(NC(=O)CN(C)S(=O)(=O)c2cccc3nsnc23)c1 | 98.9%
15 | CCOc1cc(C)c(Cl)cc1S(=O)(=O)NCc1ccco1 | 27.7µM*
16 | CC1(C)Oc2ccc(C(=O)NC3CCCC3)cc2N(CC(=O)N2CCOCC2)C1=O | 99.9%
17 | O=c1cc(CSc2ccccn2)c2ccccc2[nH]1 | 85.2%
18 | CCOc1ccc(N(CC(=O)NC2CCCCC2)S(=O)(=O)c2c(C)noc2C)cc1 | 94.7%
19 | O=C(CSc1nnnn1-c1ccccc1)Nc1ncc2c(n1)CC(c1ccco1)CC2=O (stereo unspecified) | 89.8%
20 | Cc1noc(NS(=O)(=O)c2ccc(NC(=O)CSc3nnc(-c4ccccc4)n3C3CCCCC3)cc2)c1C | 94.6%
21 | CC1CN(C(=O)N[C@@H](Cc2ccccc2)C(=O)O)CC(C)O1 (stereo partly specified) | 94.3%
22 | O=C(Cc1ccccc1)Nc1scc(-c2ccccc2)c1C(=O)N1CCOCC1 | 105.5%
23 | O=C(CCn1nc(-c2ccccc2)ccc1=O)N1CCCC1 | 100.5%
24 | CC(=O)c1c(C)[nH]c(C(=O)Nc2ccc(C)c(C)c2)c1C | 92.9%
25 | CC(C)NC(=O)C1CCCN(S(=O)(=O)c2cccs2)C1 (stereo unspecified) | 99.5%
26 | O=C1OCCC1Sc1nc2ccccc2n1Cc1ccccc1 (stereo unspecified) | 92.2%
27 | CC1Cc2ccccc2N1Cc1nc2cc(C(F)(F)F)ccc2c(=O)[nH]1 (stereo unspecified) | 91.2%
28 | O=C(CN1C(=O)c2ccccc2C1=O)OC(C(=O)c1ccc(Cl)cc1)c1ccccc1 (stereo unspecified) | 94.4%
29 | CCC1SC2=NC(C)=C(C(=O)OC)C(c3ccc(C(=O)OC)cc3)N2C1=O (stereo unspecified) | 95.7%
30 | COc1ccc2oc(C(F)(F)C(F)(F)F)cc(=O)c2c1 | 96.3%

Two compounds picked at random from the list so far, as already listed:
no. | Structure | Vero
5 | COc1ccc(CC(=O)OCc2cc3ccc(C)cc3[nH]c2=O)cc1 | 92.6%
26 | O=C1OCCC1Sc1nc2ccccc2n1Cc1ccccc1 (stereo unspecified) | 92.2%

Later entries.
no. | Structure | Vero
31 | Cc1cc(C)n(Cc2ccc(NC(=O)c3nn(C)cc3[N+](=O)[O-])cc2)n1 | 20.8µM*
32 | CC(C)C(C(=O)O)N1C(=O)/C(=C/C=C/c2ccco2)SC1=S (stereo unspecified) | 92.4%
33 | O=C(Nc1cccc(C(F)(F)F)c1)c1cccnc1NCCc1ccccc1 | >40µM*
34 | CCN(CC)c1ccc(NC(=O)c2ccc(Br)o2)cc1 | 109.9%
35 | COC(Cc1nnc(SC)n1-c1ccc(Cl)cc1)OC | 96.5%
36 | CCCOc1ccc(Cc2nn3c(=O)/c(=C/c4ccco4)sc3nc2=O)cc1 | 103.3%
37 | Cc1cc(SCC(=O)Nc2ccccc2C)nc(C)n1 | 106.7%
38 | Cc1cnc(NC(=O)CSc2nnc(CNc3ccc(F)cc3)n2CC2CCCO2)s1 (stereo unspecified) | 92.4%
39 | Cc1ccc(-c2nnc(SCC(=O)N3CC(C)CC(C)C3)o2)cc1C (stereo unspecified) | 99.9%
40 | CCn1c(SCC(=O)n2c(C)c(C)c3ccccc32)nnc1-c1ccco1 | 91.6%
41 | O=C(c1ccccc1S(=O)(=O)NCc1ccccc1)N1CCCC1 | 107.3%
42 | CC(C)CC(=O)Nc1nnc(-c2ccco2)s1 | 96.0%
43 | Cc1cccc(N(C(=O)c2ccc(Cl)cc2)C2CS(=O)(=O)CC2OC(=O)c2ccc(Cl)cc2)c1 (stereo unspecified) | 88.7%
44 | COc1ccccc1C(=O)Nc1ccc(S(=O)(=O)Nc2cc(C)nc(C)n2)cc1 | 96.3%
45 | COc1cccc(OC)c1OCCOCCn1cnc2ccccc2c1=O | 102.6%
46 | COc1ccc(-c2cc(C(=O)NCCCn3ccnc3)no2)cc1OC | 95.0%
47 | CCCCNC(=O)c1ccc2nc(-c3ccco3)c(-c3ccco3)nc2c1 | 102.1%
48 | NC(=O)c1c(NC(=O)Cc2cccs2)sc2c1CCC2 | 91.4%
49 | CCOC(=O)c1cnc(-c2ccccc2)nc1Oc1ccc(C)cc1 | 97.8%
50 | C=CCNC(=O)c1ccccc1Cl | 98.3%
51 | O=C(CNS(=O)(=O)c1ccc(Br)s1)N1CCCC1 | 91.8%
52 | O=C(NC1CCCCC1)n1c(=O)oc2cc(S(=O)(=O)N3CCCCC3)ccc21 | 93.7%
53 | Cc1cc(-c2csc(NC(=O)c3cc4ccccc4o3)n2)c(C)n1C | 96.5%
54 | CCn1c2ccccc2c2cc(NC(=O)c3ccccc3[N+](=O)[O-])ccc21 | 87.1%
55 | O=C(NCc1ccncc1)c1cnccn1 | 91.7%
56 | CN(C)c1ccc(N/C=C/C(=O)c2ccco2)cc1 | 90.5%
57 | COc1ccc(/C=N\NC(=O)c2cc(O)c(O)c(O)c2)cc1CN1CCN(c2ccc(F)cc2)CC1 | 88.9%
58 | CCc1ccccc1NC(=O)CC(O)(C(=O)OC)C(F)(F)F (stereo unspecified) | 96.6%
59 | O=C(NCCc1ccc(Cl)cc1)C1CCN(C(=O)c2sccc2-n2cccc2)CC1 | >40µM*
60 | CCN(CC)CCCNC(=O)c1cn(CCOC)c(=O)c2c1c1ccccc1n2C | 100.8%

Taken from above:
Under Vero, NC(=O)c1c(NC(=O)Cc2cccs2)sc2c1CCC2 is listed with 91.4%
Under Vero, CCOC(=O)c1cnc(-c2ccccc2)nc1Oc1ccc(C)cc1 is listed with 97.8%
Under Vero, COc1ccc(-c2cc(C(=O)NCCCn3ccnc3)no2)cc1OC is listed with 95.0%
Under Vero, O=C(NC1CCCCC1)n1c(=O)oc2cc(S(=O)(=O)N3CCCCC3)ccc21 is listed with 93.7%
Under Vero, CN(C)c1ccc(N/C=C/C(=O)c2ccco2)cc1 is listed with 90.5%
Under Vero, Cc1ccc(-c2nnc(SCC(=O)N3CC(C)CC(C)C3)o2)cc1C (stereo unspecified) is listed with 99.9%
Under Vero, COC(Cc1nnc(SC)n1-c1ccc(Cl)cc1)OC is listed with 96.5%

Remaining list, next part.
61. COc1cc2cc(C(c3nnnn3C3CCCC3)N(C)C3CCCCC3)c(=O)[nH]c2cc1OC (stereo unspecified)
  Vero: 98.2%

62. CCOC(=O)CSc1nnc(CNC(=O)c2cccs2)n1-c1ccccc1
  Vero: 90.9%

63. Cc1cc(C)cc(NC2=CC(=O)CC(c3ccco3)C2)c1 (stereo unspecified)
  Vero: 106.2%

64. C=CCn1c(O)c(C(CC)=NCCN2CCOCC2)c(=O)[nH]c1=O
  Vero: 97.2%

65. CCOC(=O)C1CCN(C(c2cccs2)c2sc3nc(C)nn3c2O)CC1 (stereo unspecified)
  Vero: 92.2%

66. CC(C)(C)NC(=O)NC(=O)COc1ccccc1C#N
  Vero: 90.2%

67. COc1ccccc1Oc1coc2cc(OC(=O)N3CCOCC3)ccc2c1=O
  Vero: 86.1%

68. COc1ccc(C(=O)Nc2cccc(C(=O)N3CCN(C)CC3)c2)cc1
  Vero: 104.3%

69. COC(=O)c1cn[nH]c1NC(=S)Nc1ccc(C)cc1Cl
  Vero: 93.0%

70. Nn1c(SCC(=O)NC2CCCc3ccccc32)nnc1-c1cccs1 (stereo unspecified)
  Vero: 109.0%

71. CCC1(C)Cc2c(sc(NC(=O)CCC(=O)O)c2C#N)CO1 (stereo unspecified)
  Vero: 89.6%

72. CC(C)(C)OC(=O)N1CCC[C@H]1c1nnc(SC/C=C/c2ccccc2)o1
  Vero: 97.1%

73. COCCNC(=O)COC(=O)c1[nH]c(C)c(C(C)=O)c1C
  Vero: 97.9%

74. CC(C)(C)NC(=O)/C(=C/c1ccco1)c1ccccc1
  Vero: 99.9%

75. CSc1nc(N2CCOCC2)c2c3c(sc2n1)CCC3
  Vero: 84.9%

4 entries from above, arranged by molar mass, rising.
66. CC(C)(C)NC(=O)NC(=O)COc1ccccc1C#N
  Vero: 90.2%

71. CCC1(C)Cc2c(sc(NC(=O)CCC(=O)O)c2C#N)CO1 (stereo unspecified)
  Vero: 89.6%

69. COC(=O)c1cn[nH]c1NC(=S)Nc1ccc(C)cc1Cl
  Vero: 93.0%

70. Nn1c(SCC(=O)NC2CCCc3ccccc32)nnc1-c1cccs1 (stereo unspecified)
  Vero: 109.0%

Carrying on:
76. O=C1S/C(=C\C=C\c2ccco2)C(=O)N1c1ccc(O)cc1
  Vero: 95.9%

77. CCOC(=O)N1CC=C2C(C#N)=C(N)C(C#N)(C#N)[C@H](c3cccs3)[C@H]2C1
  Vero: 95.0%

78. COC(=O)COc1ccc(S(=O)(=O)NCc2ccco2)cc1Cl
  Vero: 95.7%

79. CCN1/C(=C(\O)c2ccccc2)C(=O)c2ccccc2S1(=O)=O
  Vero: 24.3µM*

80. CC1CCc2c(sc3ncn4c(SCC(=O)NCc5ccco5)nnc4c23)C1 (stereo unspecified)
  Vero: 101.2%

81. C=C(C)Cn1c(C)cc(C)c(S(=O)(=O)c2ccccc2C)c1=O
  Vero: 81.0%

82. CCn1c(CNC(C)=O)nnc1SCC(=O)c1ccc(Br)cc1
  Vero: 95.9%

83. CCN(CC)CCN1C(=O)C(=O)/C(=C(/O)c2ccc(C)cc2)C1c1ccncc1 (stereo unspecified)
  Vero: 92.8%

84. CCOC(=O)C1=C(O)/C(=C\c2ccc(CNC(=O)C(=O)Nc3ccccc3)o2)N=C1C
  Vero: 98.0%

85. O=C(CN1CCN(CC(=O)Nc2ccc3c(c2)OCO3)CC1)Nc1ccc(F)cc1
  Vero: 97.9%

86. O=C(Cn1[nH]c(=O)c2ccccc2c1=O)OCC(=O)N(Cc1ccccc1)Cc1ccccc1
  Vero: 95.1%

87. CCn1cc(CNC(=O)c2ccc(Cl)c([N+](=O)[O-])c2)c(C)n1
  Vero: 110.0%

Compound activity as filed in PubChem.

Not all compounds are listed (hit frequency here may not be typical).
